ALR inh: inhibitors of human sulfhydryl oxidase ALR. purified ALR, DTT oxidation, H2O2 HRP-luminol luminescence. inhibition, % (test concentration not listed). 290,000 compounds, 3.8% hits. AID 485317;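 active means mean and each replicate at 75% or more; inconclusive means only one of the two met; inactive means neither met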;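 further: stock transfer was 7.5 nL into about 7.5 µL; 0% = neutral wells and 100% = wells with inactivated enzyme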
Target sequence (P55789 whole entry, looked up): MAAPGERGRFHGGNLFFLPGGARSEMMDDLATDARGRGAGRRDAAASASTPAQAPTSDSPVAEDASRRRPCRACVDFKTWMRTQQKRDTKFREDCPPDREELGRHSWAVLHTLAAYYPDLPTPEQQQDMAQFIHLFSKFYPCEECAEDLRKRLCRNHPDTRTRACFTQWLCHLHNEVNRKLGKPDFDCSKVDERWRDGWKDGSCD
Calb FLC: affects C. albicans growth with fluconazole | AID 1979 | growth inhibition, % (concentration not given with the values) | C. albicans CaCi-2 (fluconazole-resistant clinical isolate) + fluconazole, Alamar Blue growth, 48 h | 300,000 compounds, 0.57% hits;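 active means most replicates above 75%; inconclusive means exactly half above 75%; inactive means most below 75%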;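 further: all wells also contain fluconazole at 8 µg/ml as a sub-toxic cotreatment; 0% = median of DMSO wells and 100% = median of geldanamycin control wells; wells of about 8 µL received 7.5 nL stock; the first replicate is given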
Beta apoptosis: blocks beta cell apoptosis | protection from apoptosis, % (test concentration not listed) | 300,000 compounds, 0.8% hits | INS-1E cytokine-induced death, ATP luminescence, 48 h; percent of positive-control rescue, neutral wells zero | AID 435005;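 active means all replicates at 75% or more, or half of them and the mean; inconclusive means half reach 75% but not the mean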;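 further: 0% = cytokine-treated negative control wells and 100% = positive control rescue; higher means more ATP so stronger rescue from cytokine killing; wells of about 40 µL received 100 nL stock; the first replicate is given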
T cruzi repl: T. cruzi replication inhibition; T. cruzi beta-gal in NIH3T3, luminescence, 90 h; inhibition, % (concentration not given with the values); 300,000 compounds, 1.4% hits; AID 1885;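 active means mean inhibition across valid replicates above about 55%, limit read from the data; inconclusive means mean below that limit but half or more replicates reach it; inactive means mean below it, under half of replicates reach it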;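 further: signal also drops with host cell toxicity which is not excluded here; 0% = plate median of DMSO wells and 100% = zero luminescence signal; higher percent means less beta-gal luminescence so fewer parasites; stock transfer was 50 nL into about 50 µL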
Ecoli rRNA inh: inhibits bacterial ribosomal RNA function over humanized ribosomes. E. coli WT GFP vs humanized-ribosome RFP mutants, fluorescence, 24 h; stronger effect = lower value; DMSO median 0, no signal -100. GFP signal change (wild-type ribosome), % (test concentration not listed). 350,000 compounds, 1.6% hits. AID 720706;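 active means significant combined selectivity score with lowered wild-type GFP, culture density cut under 30%, mutant RFP and density less affected; inactive means any of these conditions unmet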; further: one replicate is shown; some compounds called inactive have numbers as strong as hits
FGF22 binding: FGF22 (human) thermal shift binding. recombinant FGF22 thermal shift, SYPRO orange fluorescence; percent of sucrose octasulfate shift, DMSO zero. 340,000 compounds, 1.5% hits. calls only at 9.99 µM;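 active means melting point raised past a set limit in the mean and every replicate; inconclusive means no clear call; three in four hits are not shown here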
Target sequence (Q9HCT0 whole entry, looked up): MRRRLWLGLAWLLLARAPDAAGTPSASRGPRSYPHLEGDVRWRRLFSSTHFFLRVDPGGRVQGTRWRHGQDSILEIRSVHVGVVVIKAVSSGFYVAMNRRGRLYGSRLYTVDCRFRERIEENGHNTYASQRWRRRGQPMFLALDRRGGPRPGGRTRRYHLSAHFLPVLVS
RanGTP-Impb inh: disruptors of Ran-importin-beta complex formation – biochemical, FRET, CFP-Ran, YFP-importin-beta, homogeneous, primary screen; cell-free CFP-Ran/YFP-importin-beta FRET ratio; inhibition, % (no concentration beside the values); 300,000 compounds, 1.1% hits;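 active means most replicates above 15%; inconclusive means exactly half above 15%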;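 further: 0% = DMSO wells and 100% = Ran loaded with GDP instead of GTP; wells of about 40 µL received 100 nL stock; the first replicate is given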
MLL AF4-AF9 inh: MLL-AF4/AF9 protein interaction inhibition; P42568; 350,000 compounds, 0.47% hits; AlphaScreen, biotin-AF4 peptide binding to FLAG-AF9; inhibition, % at 10 µM; AID 651704;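 active means every replicate reaching a set inhibition limit, whatever the replicate mean, cut at about 25% in these data; inconclusive means mean inhibition reaches that limit but some replicates miss it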;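 further: 0% = plate neutral control median and 100% = total signal loss; the record names both 10 and 1 µM as test concentration; the first replicate is given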
Target sequence (P42568 whole entry, looked up): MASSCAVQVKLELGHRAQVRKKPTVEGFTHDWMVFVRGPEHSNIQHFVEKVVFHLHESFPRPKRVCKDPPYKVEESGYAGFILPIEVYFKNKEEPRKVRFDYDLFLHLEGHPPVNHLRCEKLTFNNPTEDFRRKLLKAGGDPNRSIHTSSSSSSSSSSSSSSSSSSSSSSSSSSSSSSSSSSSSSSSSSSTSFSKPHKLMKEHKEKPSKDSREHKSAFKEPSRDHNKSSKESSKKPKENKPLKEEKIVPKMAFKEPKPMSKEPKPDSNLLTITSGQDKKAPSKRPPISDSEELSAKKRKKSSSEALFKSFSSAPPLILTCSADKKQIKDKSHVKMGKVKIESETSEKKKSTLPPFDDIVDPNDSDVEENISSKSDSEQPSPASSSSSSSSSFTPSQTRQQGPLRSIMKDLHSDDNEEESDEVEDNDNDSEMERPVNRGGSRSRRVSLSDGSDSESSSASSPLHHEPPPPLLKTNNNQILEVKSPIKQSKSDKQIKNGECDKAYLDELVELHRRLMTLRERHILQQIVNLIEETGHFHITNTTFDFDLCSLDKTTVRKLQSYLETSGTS
Ecoli rRNA inh OD600: further read-out of Ecoli rRNA inh, marked with its call; OD600 change, %; measured here: OD600 growth;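 optical density of the mix in the first replicate; 0 = DMSO median and -100 = no signal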
Ecoli rRNA inh RFP: also measured in Ecoli rRNA inh; calls as there; RFP signal change, %; measured here: RFP humanized mutant strains;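 first replicate; 0 = DMSO median and -100 = no signal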
* = called active by the depositor; i = inactive; ? = inconclusive; / = no result given; + = active, no number. This is a subset; count on the stated rates, not on these rows.

SMILES | ALR inh | Calb FLC | Beta apoptosis | T cruzi repl | Ecoli rRNA inh | Ecoli rRNA inh OD600 | Ecoli rRNA inh RFP | FGF22 binding | RanGTP-Impb inh | MLL AF4-AF9 inh
Cc1nn(C)c(C)c1/C=N/NC(=O)CCn1cc([N+](=O)[O-])cn1 | -8.8 | -4.3 | -3.9 | -9.1 | 8.3 | 6.3 | -5.3 | i | 5.6 | -1.3
COc1cccc(NC(=S)N(CCN(C)C)Cc2cccs2)c1 | / | -11.4 | -12.6 | -6.3 | 13.1 | 2.9 | -1.1 | i | -0.8 | -0.9
CCCCN1C(=O)CCC(C(=O)O)C1c1ccc(OC)cc1 (stereo not given) | -1.7 | 5.4 | -5.5 | -11.6 | / | / | / | / | -1.7 | /
O=C(Cc1ccccc1)Nc1cccc(-c2nc3ncccc3o2)c1 | 2.5 | -5.4 | 2.7 | -3.2 | / | / | / | / | -2.0 | /
CN(C)CC/C=C1\c2cc(F)ccc2CSc2ccccc21 | / | -19.5 | -0.1 | 9.0 | / | / | / | / | -1.8 | /
Cc1ccc(NC(=O)CCC(=O)O)cc1F | -15.0 | 1.4 | -1.8 | -15.6 | 7.7 | 4.9 | -10.4 | i | -3.0 | 0.3
Cc1nc2ccc(NS(=O)(=O)c3c(F)cccc3F)cc2s1 | -3.2 | / | 2.1 | / | / | / | / | i | / | -1.8
COc1ccc(OC)c(N(CC(=O)N2CCCC2)S(=O)(=O)c2ccc(OC)c(OC)c2)c1 | -11.4 | 14.2 | / | 5.4 | / | / | / | / | -2.7 | /
COc1ccc(OC)c(C2NC(=O)c3sc(=S)n(-c4ccccc4)c3N2)c1 (stereo not given) | 18.7 | -7.4 | / | -1.5 | / | / | / | / | 0.2 | /
Cc1cccc(NC2=C(NCCO)C(=O)c3ccccc3C2=O)c1 | 98.9* | -1.8 | 5.1 | -5.6 | 1.1 | 0.5 | -3.1 | i | 6.0 | 48.6*
O=C(CSc1nc(Nc2ccccc2)nc(N2CCOCC2)n1)Nc1cc(Cl)ccc1O | -0.2 | 26.8 | 14.7 | 16.9 | / | / | / | i | 0.7 | 2.1
O=C(CSc1ccc(-c2ccccc2)nn1)N1CCCc2ccccc21 | 0.1 | -25.4 | -10.7 | -1.6 | -25.8 | -31.8 | -12.5 | i | 3.0 | 2.8
N#Cc1cccc(C(c2nnnn2Cc2ccccc2)N2CCCC2)c1 (stereo not given) | 4.4 | ? | -6.6 | -14.0 | 4.1 | 3.1 | -2.9 | / | 0.4 | -10.6
CCOC(=O)CN1C(=O)C(O)(c2c(C)[nH]c3ccccc23)c2ccccc21 (stereo not given) | -0.6 | -0.8 | -5.0 | -5.6 | / | / | / | / | ? | /
CC(=O)[C@H]1[C@H](CCc2ccccc2)NC(=O)N(Cc2ccccc2)[C@@H]1C | 1.7 | -0.1 | -13.6 | -9.8 | -6.8 | -4.8 | -7.7 | i | 3.2 | 4.5
CC1(C)CC(=O)c2cc(C(=O)O)c(=O)n(-c3ccccc3)c2C1 | -11.4 | 20.7 | 0.5 | -0.9 | / | / | / | / | 7.6 | /
O=C(CNC(=S)N(CCCN1CCOCC1)Cc1cccs1)NCCCN1CCOCC1 | -1.8 | -10.7 | 4.1 | -24.0 | / | / | / | / | 0.2 | /
COc1ccccc1/C=N/NC(=O)c1ccc(-c2ccccc2)cc1 | -2.9 | -11.4 | 5.3 | -8.2 | / | / | / | / | -2.2 | /
OCC(CO)(CO)NCC(O)CN1c2ccccc2Sc2ccccc21 (stereo not given) | 98.7* | 11.1 | -4.2 | -7.7 | / | / | / | / | 2.0 | /
Cc1ccc(C(=O)N/N=C\C=C\c2ccccc2[N+](=O)[O-])cn1 | 6.2 | -12.7 | -3.4 | -23.9 | 3.1 | 9.2 | -0.6 | i | 1.1 | -1.2
CC1c2ccsc2CCN1C(=O)NC(=O)c1ccc(Cl)cc1 (stereo not given) | -11.3 | -1.1 | -4.1 | -0.5 | 14.6 | 5.6 | 5.5 | i | -3.2 | 1.8
CCC(=O)NC(c1cccs1)c1cc(Cl)c2cccnc2c1O (stereo not given) | -8.5 | 99.2* | 98.9* | 58.7* | 4.2 | -1.1 | 0.7 | i | -7.3 | -1.8
CC1CN(Cc2csc(-c3ccc(Cl)cc3)n2)CC(C)O1 (stereo not given) | 71.5 | -11.4 | -4.6 | 1.2 | -24.2 | -31.8 | -0.6 | i | 1.4 | 3.1
CC(NC(=O)C(=O)NN=C1CCC(C(C)(C)C)CC1)c1ccccc1 (stereo not given) | -7.3 | 2.3 | -0.3 | 0.6 | 17.8 | 5.4 | 6.2 | i | -0.2 | -6.1
Cc1cc(C)c2nc(N3CCCC(C(=O)NCCCN4CCOCC4)C3)sc2c1 (stereo not given) | 19.3 | 3.1 | -1.1 | 5.5 | / | / | / | / | -6.4 | /
CCC(C)NC(=O)CCC(=O)Nc1ccc2nc(N3CC(C)CC(C)C3)cc(C)c2c1 (stereo not given) | 30.1 | -19.7 | -2.4 | 36.1 | 0.4 | -10.0 | -4.0 | i | 2.3 | -8.2
CCCC[C@@H]1C=C(C(=O)O)[C@H](c2ccc(Cl)cc2)N1S(=O)(=O)c1ccc(C)cc1 | 14.4 | / | -1.1 | / | -7.3 | -16.2 | 1.1 | i | / | -2.1
Cc1ccc(C)c(Nc2nc(N)c3ccccc3n2)c1 | 7.3 | -10.1 | 24.0 | 45.4 | -8.8 | -20.3 | -0.5 | i | 1.4 | 1.4
Cc1ccccc1N/C(SCc1ccc(Cl)cc1)=C(/C#N)C(=O)NCc1ccco1 | 52.7 | ? | 9.5 | 33.8 | / | / | / | / | -1.5 | /
CC(C)C1Cc2c(sc3c2c(=O)n(-c2ccccc2)c2n[nH]c(=S)n32)CO1 (stereo not given) | 93.7* | 12.9 | 6.0 | 12.9 | -6.7 | -7.7 | 7.7 | i | -0.4 | -9.0
O=C(CCCC(=O)N(CC(=O)NC1CCCC1)Cc1ccccc1Cl)Nc1ccccn1 | -11.1 | -10.9 | 2.1 | -2.3 | / | / | / | / | 2.1 | /
COc1ccc(C(=O)NC(=S)N2CCNC(=O)C2CC(=O)OC(C)C)cc1 (stereo not given) | 22.6 | -1.0 | 2.3 | -8.3 | 6.9 | 7.4 | -0.4 | i | -1.4 | -2.7
Cc1ccc(S(=O)(=O)Nc2cccc(S(=O)(=O)Nc3ccccc3C(=O)O)c2)c(C)c1 | 10.2 | / | 4.3 | / | -8.4 | -6.3 | -2.4 | + | / | -7.2
COc1cc2c(cc1OC)CN(CC(=O)Nc1ccc(S(=O)(=O)N(C)C)cc1)CC2 | 2.0 | -2.6 | 3.6 | 7.1 | -1.9 | 8.1 | -0.1 | i | 3.0 | 4.4
O=C1NC(=O)/C(=C/C(=O)N2CCOCC2)S1 | -6.0 | -3.7 | -15.1 | -22.9 | 12.0 | 8.3 | 0.1 | i | 4.5 | -1.6
O=C(O)CCCc1ccc2c(c1)CCc1ccccc1-2 | -17.2 | 23.1 | -1.2 | -16.2 | -43.5 | -56.2 | -12.7 | i | -3.2 | -0.9
COc1ccc(/C(N)=C/C(=O)C(C)(C)C)cc1 | -1.9 | ? | -4.5 | 3.3 | / | / | / | / | -1.3 | /
CCOC(=O)C1CCN(C(=O)c2cc3c(C)cc(C)cc3[nH]2)CC1 | / | 0.9 | / | -12.4 | 1.9 | 2.2 | 6.7 | i | ? | -1.4
CSc1sc(C(=O)NCC2CC2)c(-c2cccs2)c1C#N | / | -12.1 | / | 7.7 | -31.7 | -44.9 | -7.9 | i | -0.5 | -2.5
Cn1c(=O)[nH]c(=O)c2c1nc(N1CCN(CCO)CC1)n2CCSc1nc2ccccc2s1 | -12.8 | -1.6 | 2.7 | -12.5 | 0.7 | 9.3 | -0.8 | i | 3.2 | -4.3
Nc1cc(=O)nc(SCC(=O)NCc2ccccc2)n1CCc1ccccc1 | / | -21.2 | -0.3 | -3.0 | / | / | / | / | -0.3 | /
COc1cc(CNc2ccc3[nH]c(=O)[nH]c3c2)ccc1OCc1ccccc1Cl | -55.2 | / | -3.4 | -14.9 | -14.6 | -18.0 | -1.5 | i | 7.2 | 9.2
CCOC(=O)N1CCC(N2CC34C=CC(O3)C(C(=O)O)C4C2=O)CC1 (stereo not given) | -5.8 | -5.8 | 0.0 | -0.7 | 12.4 | 5.9 | -0.6 | i | -2.8 | -2.9
CCOC(=O)C(NC(=O)NCc1ccccc1OC)(OCC)C(F)(F)F (stereo not given) | -14.2 | -0.5 | -3.6 | -7.7 | -17.6 | -6.3 | -1.9 | i | -3.1 | 2.8
CC(=O)Nc1cccc2c1C(=O)NC2=O | -4.0 | 3.1 | 2.1 | -16.2 | / | / | / | / | 0.6 | /
O=c1[nH]c2cc3c(cc2cc1CN(CC1CCCO1)S(=O)(=O)c1ccc(Cl)cc1)OCCO3 (stereo not given) | 0.6 | -13.4 | -3.2 | 5.3 | 7.1 | 0.1 | 0.3 | i | 3.0 | 6.0
CC(C)(C)c1ccc(-c2noc(CCC(=O)N3CCOCC3)n2)cc1 | / | 5.4 | 6.9 | -8.1 | 13.6 | 6.1 | 2.0 | / | -1.2 | -0.1
CC(=O)Nc1cccc(C(=O)OCC(=O)c2ccccc2Cl)c1 | -0.7 | -7.9 | -7.0 | -2.5 | -24.2* | -18.1* | 0.3* | i | 2.2 | 0.0
Cc1ccccc1OCC(=O)NNC(=O)c1cc(S(=O)(=O)N2CCOCC2)ccc1N1CCCC1 | -0.2 | -1.1 | 3.7 | -2.1 | -3.7 | -2.3 | 0.1 | i | 0.5 | 2.1
Cn1c(=O)c2c(ncn2CC(COCc2ccc(Cl)cc2)OCc2ccc(Cl)cc2)n(C)c1=O (stereo not given) | / | 6.0 | 15.6 | 14.2 | / | / | / | / | -4.0 | /
Cc1ccccc1Nc1c(-c2cccnc2)nc2cccc(C)n12 | 11.7 | 1.7 | -1.9 | 1.2 | -16.0 | -15.7 | -2.3 | i | -1.4 | -30.7
COc1ccc(S(=O)(=O)N(CC(=O)N/N=C/c2ccc(C(=O)O)cc2)Cc2ccccc2)cc1OC | -2.2 | -4.6 | -2.7 | -8.5 | -2.3 | -10.2 | -2.4 | i | 0.2 | 1.1
CC(=O)c1ccc(NC(=O)CC(NCCC2=CCCCC2)C(=O)O)cc1 (stereo not given) | -1.5 | -2.9 | -1.5 | -34.6 | 6.4 | -8.1 | 3.5 | i | -1.0 | -23.0
CNS(=O)(=O)c1cccc(C(=O)NNC(=O)CN(C)S(=O)(=O)c2ccc(Cl)cc2)c1 | 12.7 | -0.9 | 4.2 | -5.2 | 1.6 | 5.8 | 0.5 | i | 2.0 | -2.3
COC(=O)c1ccc(NCC(=O)Nc2cc(C)cc(C)c2)cc1 | -6.9 | -6.6 | -2.1 | 4.7 | -2.6 | -9.3 | -1.9 | i | 5.0 | -4.6
